S aureus helic = S. aureus DNA helicase inhibition; purified S. aureus helicase, fluorescence unwinding assay; about half of the hits fall short of the stated cut; inhibition, %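 (tested at about 80 µM)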; 120,000 compounds, 0.05% hits; AID 485395;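 active = both duplicates at 50% or more, or one of them with a favoured structure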;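 also: 0% = mean of negative control wells and 100% = mean of positive control wells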
MgrA DNA FP = S. aureus MgrA-DNA binding modulation. AID 602314. 84,000 compounds, 0.13% hits. inhibition, %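 (about 10 µg/mL by stock and volumes)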. fluorescence polarization;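 active = above 50% in either of two replicates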;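 also: 0% = protein plus DNA without compound and 100% = DNA alone without protein; higher means less MgrA bound to DNA so lower polarization; one replicate is shown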
* marks the source's active call; other numbers are inactive results; nt = no result given. An excerpt (hit frequency here may not be typical).

SMILES	S aureus helic	MgrA DNA FP
O=C1NC(=Nc2ccccc2)S/C1=C\c1ccc(-c2cccc(C(=O)O)c2)o1	nt	1.1
Cc1c2cnn(CC(=O)NC(C)c3ccc4c(c3)OCCO4)c(=O)c2c(C)n1Cc1ccc(F)cc1 (stereo not given)	-9	0.3
COC(=O)/C=C/C(=O)Nc1ccccc1	34	nt
Nc1sc2ccccc2[n+]1CC(=O)Nc1ccc(Cl)cc1	-1	-1.6
O=C1COc2cc(S(=O)(=O)NCc3ccccc3)ccc2N1	8	3.5
O=C(NC(Cc1nc2ccccc2[nH]1)c1ccccc1)c1ccccc1 (stereo not given)	15	2.1
CN(Cc1ccccc1)C(=O)CCc1nc2cccnc2n1Cc1ccccc1	5	1.4
CC(C)C(=O)N(c1nnc(-c2ccncc2)s1)C(C)C	11	-1.4
COc1ccc(C2CC(c3c(O)cc(C)oc3=O)=NCCS2)c(OC)c1 (stereo not given)	6	-5.2
CC1CN(S(=O)(=O)c2ccc(NC(=O)CN3C(=O)COc4ccccc43)cc2)CC(C)O1 (stereo not given)	12	nt
CC(C)Cc1oc(C(=O)O)cc1CN	-4	-3.4
C=CCNC(=O)COc1ccc(Cl)cc1Cl	9	-1.9
CC(C)Cn1c(CO)nc2ccccc21	-16	nt
CCS(=O)(=O)c1cccc(C(=O)Nc2nccs2)c1	14	nt
NC(=O)c1ccccc1NC(=O)CSc1nc(N)cc(=O)[nH]1	4	-0.9
CCCN(CCO)CCCc1ccccc1	-2	-4.8
COc1cc(C(=O)Nc2ccc3oc(-c4cccc5ccccc45)nc3c2)cc(OC)c1OC	nt	-2.5
Cn1c(CNC(=O)c2ccccc2)n[nH]c1=S	-3	-1.4
O=C(CSc1nnc(-c2ccc(OC(F)F)cc2)o1)NCC12CC3CC(CC(C3)C1)C2	-6	nt
CC1(C)CC(=O)C=C(N2CCN(Cc3ccccc3)CC2)C1	-10	nt
CN=C1SC(CC(=O)Nc2ccccc2F)C(=O)N1C (stereo not given)	nt	0.7
O=C(/C=C/c1cccs1)N(C1CC1)C1(C(=O)Nc2ccccc2)CCCC1	2	-0.5
C1CCN(SN2CCCCC2)CC1	3	1.2
CCCC(=O)Nc1ccc(Cl)c(Cl)c1	-12	0.8
Cc1ccc(CN(C)Cn2nc(-c3c[nH]c4ccccc34)n(CC3CCCO3)c2=S)o1 (stereo not given)	31	nt
More results.
SMILES	S aureus helic	MgrA DNA FP
O=C(Nc1ccccc1)N1CCN(Cc2ccc3c(c2)OCO3)CC1	-4	nt
O=C1NN=C(c2ccccc2)C1CCO (stereo not given)	11	nt
Cc1ccoc1C(=O)N1CCCCC1C(=O)O (stereo not given)	7	nt
CC(C)(C)C(=O)Nc1nnc(SCC(=O)Nc2cc(C(F)(F)F)ccc2Cl)s1	-10	nt
COc1ccc(CCNC(=O)CSc2nc(O)c(C(C)C)c(=O)[nH]2)cc1OC	7	0.1
COC(=O)C(NC=O)C(O)(c1ccc(OC)cc1)C(F)(F)F (stereo not given)	-1	nt
CCOC(=O)c1nn(-c2ccccc2)c(=N)c(C#N)c1C	nt	0.0
COc1ccc(NCc2nc(-c3ccccc3)no2)cc1OC	7	0.1
COC(=O)/C(=C\c1c[nH]c2ccccc12)NC(C)=O	2	-2.1
Cc1ccc(C(=O)c2cccs2)s1	-4	0.0
CCOC(=O)Nc1c(C)noc1C	nt	-1.7
O=C1CCC2(CC1)OCCO2	-15	nt
CC1=C(CCN2CCN(C)CC2)C(C)(C)CCC1	9	-1.3
CC(=O)NC(=O)/C(C#N)=C/Nc1ccc(F)c(Cl)c1	-23	nt
COCN(C#N)c1nc(N(C)C)nc(N(C)C)n1	1	-0.3
CN1/C(=C\C(=O)COC(=O)C2CC3CCCC(C2)C3=O)C(C)(C)c2ccccc21 (stereo not given)	-15	nt
CCCc1c(C)c2ccccc2[nH]c1=O	7	-1.6
CC(=O)Nc1ccc(-n2c(C)ccc2C)c(C(=O)O)c1	8	nt
O=C1/C(=C/c2cccs2)SC(=S)N1c1ccc(Cl)c(Cl)c1	-9	nt
N#CN=C(c1ccccc1)c1ccccc1	12	nt
CC(CCc1ccccc1)NC(=O)Cn1nc(Cc2ccncc2)c2ccccc2c1=O (stereo not given)	7	nt
CCOC(=O)N1CCN(C(=O)CCCN2C(=O)/C(=C\c3cccs3)SC2=S)CC1	10	4.8
C=C(C)Cn1c(CNC(=O)C(C)(C)C)nc2ccccc21	-18	nt
O=C(Cc1cccs1)Nc1cccc(-c2nnc(-c3ccco3)o2)c1	6	-4.8
Cc1onc(-c2ccccc2)c1C(=O)Nc1ccc(S(=O)(=O)Nc2ncccn2)cc1	9	-1.2

Sorted by length of the SMILES (rising): some entries from above
SMILES	S aureus helic	MgrA DNA FP
CCOC(=O)c1nn(-c2ccccc2)c(=N)c(C#N)c1C	nt	0.0
O=C(Cc1cccs1)Nc1cccc(-c2nnc(-c3ccco3)o2)c1	6	-4.8
CC(CCc1ccccc1)NC(=O)Cn1nc(Cc2ccncc2)c2ccccc2c1=O (stereo not given)	7	nt
COc1ccc(CCNC(=O)CSc2nc(O)c(C(C)C)c(=O)[nH]2)cc1OC	7	0.1
CC(C)(C)C(=O)Nc1nnc(SCC(=O)Nc2cc(C(F)(F)F)ccc2Cl)s1	-10	nt
CN1/C(=C\C(=O)COC(=O)C2CC3CCCC(C2)C3=O)C(C)(C)c2ccccc21 (stereo not given)	-15	nt

By substructure: those above with a furan ring, fused or not (five)
SMILES	S aureus helic	MgrA DNA FP
O=C1NC(=Nc2ccccc2)S/C1=C\c1ccc(-c2cccc(C(=O)O)c2)o1	nt	1.1
CC(C)Cc1oc(C(=O)O)cc1CN	-4	-3.4
Cc1ccc(CN(C)Cn2nc(-c3c[nH]c4ccccc34)n(CC3CCCO3)c2=S)o1 (stereo not given)	31	nt
Cc1ccoc1C(=O)N1CCCCC1C(=O)O (stereo not given)	7	nt
O=C(Cc1cccs1)Nc1cccc(-c2nnc(-c3ccco3)o2)c1	6	-4.8

The list continues:
SMILES	S aureus helic	MgrA DNA FP
COc1ccc(-n2nc(C(F)(F)F)cc2-c2cccs2)cc1	nt	-0.4
CS(=O)(=O)Nc1cccc2nsnc12	11	nt
CNC(=O)c1cc2cc(OC)ccc2oc1=N	9	nt
CC1=Nc2ccc(Br)cc2C(c2ccccc2)N1CC(=O)O (stereo not given)	-11	nt
O=C1/C(=C/c2cccs2)CCC/C1=C\c1cccs1	nt	0.3
O=S(=O)(Nc1cccc(F)c1)c1ccccc1	nt	3.8
O=C(NC1CCCCCC1)c1cc2c(s1)CS(=O)(=O)C2	3	nt
Cc1ccc2c(c1)c1c(n2CC(O)CNc2ccccc2)C(=O)CCC1 (stereo not given)	8	nt
Cc1ccsc1C(=O)N1CC(C)OC(C)C1 (stereo not given)	8	nt
COCC(C)NC(=O)c1ccc(NC(C)=O)cc1 (stereo not given)	-11	1.1
CC(C)Cc1ccc(C(C)C(=O)NCCc2c[nH]c3ccccc23)cc1 (stereo not given)	5	-1.1
CC1(C)c2cc(O)ccc2OC1N1CCOCC1 (stereo not given)	nt	1.5
N#Cc1oc2ccccc2c1NC(=O)COC(=O)CSc1ccc2ccccc2c1	-7	nt
O=C(O)CN1C(=O)CC(Cc2ccc(Cl)cc2)C1=O (stereo not given)	16	-0.1
CCOc1cc(Cl)c(Cl)c2cc(C(=O)NC)c(=O)oc12	15	-4.7
CNC(=O)c1sc(CN2C(=O)c3ccccc3S2(=O)=O)nc1C	-5	nt
O=C(CSc1nnc(C2COc3ccccc3O2)n1-c1ccccc1)c1ccc(F)cc1 (stereo not given)	nt	-1.8
FC(F)(F)c1n[nH]c(=S)n1/N=C/c1ccc(Cl)cc1	2	-2.2
CN(CC(=O)Nc1ccc(N2CCOCC2)cc1)CC(=O)Nc1ccccc1C(=O)c1ccccc1	19	nt
O=C(/C=C/c1ccccc1)/C=C/c1ccccc1	0	3.2
Cn1c2ccccc2c2cnn(CC(=O)NCc3ccccc3)c(=O)c21	-11	nt
CC(=O)N1CCC(C(=O)Nc2cc(C)cc(C)c2)CC1	nt	-3.3
Nc1[nH]ncc1-c1ccc(-n2cccc2)cc1	nt	-0.5
c1ccc2cc(OCCN3CCCCC3)ccc2c1	33	3.4
O=C1/C(=C\c2ccco2)SC(=S)N1CCC(=O)N1CCCc2ccccc21	21	nt

Compounds from the list above that have a tert-butyl group, in the order listed:
SMILES	S aureus helic	MgrA DNA FP
CC(C)(C)C(=O)Nc1nnc(SCC(=O)Nc2cc(C(F)(F)F)ccc2Cl)s1	-10	nt
C=C(C)Cn1c(CNC(=O)C(C)(C)C)nc2ccccc21	-18	nt

(continued)
SMILES	S aureus helic	MgrA DNA FP
Cc1ccc(Oc2ccc(OCC(=O)NCc3ccco3)cc2)cc1	-27	3.4
COc1ccc(NC(=O)CSc2nnc(CNc3ccc(C)cc3C)o2)c(OC)c1	6	-1.1
Cc1nc(-c2coc3cc(OCC(=O)O)ccc3c2=O)cs1	12	nt
CN1CCN(NC(=O)c2ccccc2CCc2ccccc2)CC1	4	-0.8
Cc1ccccc1C(=O)Nc1nnc(C2=COCCO2)o1	3	nt
Nc1nc(F)cc(NCCO)n1	nt	2.1
O=C(NCCC(=O)N1CCN(c2ccc(F)cc2)CC1)c1ccco1	-8	nt
CC(C)(C)OC(=O)N1CCC(CNS(=O)(=O)c2cc(Cl)sc2Cl)CC1	nt	0.3
CCN(Cc1ccccc1)C(=O)CCc1nc(-c2ccc(C)cc2)no1	7	nt
Cc1ccn(S(=O)(=O)c2ccccc2)n1	13	7.5
COC(=O)C1C2C=CC(C2)C1C(=O)Nc1ccccc1 (stereo not given)	nt	-3.0
Cc1cc(C(=O)C(F)(F)F)c(C)n1-c1cc(Cl)cc(Cl)c1	nt	0.9
CCn1c(SCC(=O)c2ccccc2)nc2sc3c(c2c1=O)CCC3	10	2.8
C=CCn1c(=S)oc2ccccc21	-10	nt
Nc1nnc(SCC(=O)C2CC2)s1	7	-1.8
O=[N+]([O-])c1cc(Cl)c(-n2cccc2)cc1SCc1ccc(Cl)c(Cl)c1	nt	-1.9
O=C(COc1ccc(Cl)cc1)OCc1ccc(Br)cc1	11	1.1
COC(=O)c1ccc(COc2ccc3c(c2)OCO3)cc1	-8	nt
COC(=O)C1CC(=O)N(Cc2ccccc2)C1 (stereo not given)	nt	0.1
Cc1cccc(C)c1NC(=O)C(c1ccc(F)cc1)N1C(=O)CC1c1ccco1 (stereo not given)	-4	nt
O=C(N/N=C/c1ccccc1C(F)(F)F)c1ccco1	27	nt
CCCCNC(=O)C1CCN(Cc2nc(-c3ccc(Cl)cc3)oc2C)CC1	10	nt
CCOC(=O)c1cc(CSc2n[nH]c(=O)n2-c2ccccc2)nn1C(C)(C)C	nt	3.0
CC(C)(C)OC(=O)NCc1nc(N)n[nH]1	11	-0.9
O=c1[nH]c2cc3c(cc2cc1CN(Cc1ccc2c(c1)OCO2)S(=O)(=O)c1ccc(F)cc1)OCO3	-6	2.1
Following part.
SMILES	S aureus helic	MgrA DNA FP
COc1ccccc1/C=C1\SC(=O)N(CCC(=O)O)C1=O	-11	nt
O=C(CSc1ncc(C(F)(F)F)cc1Cl)NC(=O)CN1CCCC1=O	-16	nt
CC(=O)Nc1cccc(Oc2ncnc3scc(-c4ccc(C(C)C)cc4)c23)c1	11	0.2
Cc1ccc(C)n1-n1cnc2scc(-c3cccs3)c2c1=O	-3	nt
Clc1cc(Cl)cc(OCc2nn[nH]n2)c1	nt	-3.7
COC(=O)c1cc(-c2ccc3c(c2)OCO3)nc2onc(C)c12	-18	nt

Whole records, looked up by structure. Screens in order: S aureus helic, MgrA DNA FP
Results for `CC(C)(C)C(=O)Nc1nnc(SCC(=O)Nc2cc(C(F)(F)F)ccc2Cl)s1` → -10, nt
Results for `O=C(/C=C/c1cccs1)N(C1CC1)C1(C(=O)Nc2ccccc2)CCCC1` → 2, -0.5
Results for `Cn1c(CNC(=O)c2ccccc2)n[nH]c1=S` → -3, -1.4
Results for `CCCc1c(C)c2ccccc2[nH]c1=O` → 7, -1.6

High-throughput results: PubChem BioAssay, ICCB-Longwood Screening Facility, Harvard Medical School
